From PubChem
Beta apoptosis = inhibitors of cytokine-induced beta cell apoptosis, primary screen, luminescence; actives 0.8% (n = 300,000); INS-1E cytokine-induced death, ATP luminescence, 48 h; percent of positive-control rescue, neutral wells zero; AID 435005, 2010; protection from apoptosis, % (concentration not given with the values);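 active = all replicates at 75% or more, or half of them and the mean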;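 also: 0% = cytokine-treated negative control wells and 100% = positive control rescue; higher means more ATP so stronger rescue from cytokine killing; wells of about 40 µL received 100 nL stock; the first replicate is given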
rRNA inh HTS = reduced GFP signal of wild-type E. coli, primary screen, bacterial rRNA inhibitor project, GFP/RFP fluorescence, OD600, single point; E. coli WT GFP vs humanized-ribosome RFP mutants, 24 h; stronger effect = lower value; DMSO median 0, no signal -100; GFP signal change (wild-type ribosome), % (concentration not given with the values); actives 1.6% (n = 350,000);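 active = significant combined selectivity score with lowered wild-type GFP, culture density cut under 30%, mutant RFP and density less affected; inactive = any of these conditions unmet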; also: one replicate is shown; some compounds called inactive have numbers as strong as hits
T cruzi inh = inhibitors of intracellular T. cruzi growth, primary screen, luminescence, NIH3T3 host cells. T. cruzi beta-gal in NIH3T3, 90 h. inhibition, % (no concentration beside the values). AID 1885, 2009. actives 1.4% (n = 300,000);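 active = mean inhibition across valid replicates above about 55%, limit read from the data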;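 also: signal also drops with host cell toxicity which is not excluded here; 0% = plate median of DMSO wells and 100% = zero luminescence signal; higher percent means less beta-gal luminescence so fewer parasites; stock transfer was 50 nL into about 50 µL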
MLL AF4-AF9 inh = inhibitors of AF4 peptide binding to AF9, primary screen, biochemical, AlphaScreen, biotin-AF4 peptide, FLAG-AF9, single point; Protein AF-9 (Homo sapiens), P42568; inhibition, % at 10 µM; actives 0.47% (n = 350,000);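 active = every replicate reaching a set inhibition limit, whatever the replicate mean, cut at about 25% in these data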;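 also: 0% = plate neutral control median and 100% = total signal loss; the record names both 10 and 1 µM as test concentration; the first replicate is given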
Target sequence (P42568 whole entry, looked up): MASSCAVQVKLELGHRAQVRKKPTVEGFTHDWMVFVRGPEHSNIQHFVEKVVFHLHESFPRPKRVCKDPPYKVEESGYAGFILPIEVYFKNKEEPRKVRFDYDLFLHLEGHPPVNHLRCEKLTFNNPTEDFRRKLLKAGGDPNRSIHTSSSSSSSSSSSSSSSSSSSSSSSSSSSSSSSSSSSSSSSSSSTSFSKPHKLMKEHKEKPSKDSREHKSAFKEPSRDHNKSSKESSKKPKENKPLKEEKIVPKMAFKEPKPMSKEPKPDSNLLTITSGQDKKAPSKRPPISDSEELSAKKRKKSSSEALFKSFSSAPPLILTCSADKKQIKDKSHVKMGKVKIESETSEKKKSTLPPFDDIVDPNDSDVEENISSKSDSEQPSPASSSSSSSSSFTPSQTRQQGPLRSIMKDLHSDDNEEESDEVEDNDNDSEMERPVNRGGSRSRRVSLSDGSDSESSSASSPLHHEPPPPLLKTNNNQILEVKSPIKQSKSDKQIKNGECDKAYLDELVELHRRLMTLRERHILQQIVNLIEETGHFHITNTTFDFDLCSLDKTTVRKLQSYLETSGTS
UCH37 DUB inh = inhibitors of human UCH37 deubiquitinase, primary screen, biochemical, Ub-AMC cleavage, fluorescence | Ubiquitin carboxyl-terminal hydrolase isozyme L5 (Homo sapiens), Q9Y5K5 | purified proteasome/UCH37 | inhibition, % (concentration not given with the values) | actives 0.33% (n = 330,000) | AID 588478, 2011;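 active = mean of two replicates above 20%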;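 also: 0% = compound-free wells with enzyme and 100% = wells lacking proteasome; stock transfer was 100 nL into about 20 µL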
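System: Proteasome-associated human UCH37 deubiquitinase; Input: 0.15 nM proteasome in added enzyme buffer; Also added: Ub-AMC substrate from 1 µM stock; Incubation: 30 min compound-proteasome preincubation then 25 min substrate reaction, room temperature; Detection: fluorescence, ex 355 nm, em 460 nm; Read-out: % inhibition of Ub-AMC cleavage fluorescence; Benchmarks: no-proteasome and no-compound wells.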
Bfl-1 A1 inh = caspase 3/7 activation in MEF A1-2A-BIM cells, primary screen, A1 inhibitor project, cell-based, luminescence, HTS; Caspase-Glo 3/7 luminescence, 3 h; percent of clofoctol response, vehicle zero; caspase activation, % (concentration not given with the values); actives 0.066% (n = 330,000);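 active = over half of replicate activation scores above 10%, or exactly half above 10 with the replicate mean above 10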;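 also: wells of about 30 µL received 50 nL stock; many hits fall short of the cut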
Ecoli growth = E. coli growth inhibition, primary screen, OD600 | Escherichia coli growth, 23 h; stronger effect = lower value | OD600 absorbance (no concentration beside the values) | actives 0.21% (n = 330,000);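 active = OD600 absorbance below the run mean of sample wells minus 3.6 SD, in any replicate, cut at about 0.56 in these data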;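 also: stock transfer was 300 nL into about 60 µL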
FGF22 binding = binders of human FGF22 protein, primary screen, FGF22 synaptogenesis inhibitor project, biophysical, thermal shift, single point. Fibroblast growth factor 22 (Homo sapiens), Q9HCT0. recombinant FGF22 thermal shift, SYPRO orange fluorescence; percent of sucrose octasulfate shift, DMSO zero. calls only at 9.99 µM. actives 1.5% (n = 340,000). AID 651658, 2012;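 active = melting point raised past a set limit in the mean and every replicate; three in four hits are not shown here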
Target sequence (Q9HCT0 whole entry, looked up): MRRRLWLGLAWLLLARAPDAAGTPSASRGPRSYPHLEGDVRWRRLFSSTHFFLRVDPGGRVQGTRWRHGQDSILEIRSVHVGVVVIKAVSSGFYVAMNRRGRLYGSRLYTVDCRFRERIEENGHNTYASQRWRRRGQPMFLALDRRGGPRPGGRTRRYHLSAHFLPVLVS
rRNA inh HTS OD600 = also measured in rRNA inh HTS; calls as there; OD600 change, %; measured here: OD600 growth;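 optical density of the mix in the first replicate; 0 = DMSO median and -100 = no signal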
rRNA inh HTS RFP = recorded beside rRNA inh HTS, whose call it bears; RFP signal change, %; measured here: RFP humanized mutant strains;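 first replicate; 0 = DMSO median and -100 = no signal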
* marks the source's active call; other numbers are inactive results; i = inactive; . = not tested or not shown. Only part of the results is shown, so the mix of outcomes need not match the whole.

SMILES	rRNA inh HTS RFP	rRNA inh HTS	T cruzi inh	Bfl-1 A1 inh	UCH37 DUB inh	Beta apoptosis	rRNA inh HTS OD600	FGF22 binding	MLL AF4-AF9 inh	Ecoli growth
CN(C(=O)c1ccc(NC(=O)Cc2ccc(NC(=O)C3CCCN(C(=O)C4CCCC4)C3)cc2)cc1)C1CCCC1 (centres undefined)	5.5	2	.	.	-0.1	.	-2	i	-1.8	0.66
CCCCn1c(N)c(N(CC)C(=O)c2cccs2)c(=O)[nH]c1=O	-2.1	4	.	-0.7	-1.1	-5	10	i	0.3	0.63
CCOC(=O)c1c(C)[nH]c(C)c1C(=O)COC(=O)CSc1ccc(C)cc1	7.0	-30	.	-1.8	2.7	1	-60	i	7.1	0.69
O=C(O)c1cccc(CN2C(=O)SC(Nc3ccccc3)C2=O)c1 (centres undefined)	.	.	-19	-0.9	0.8	-6	.	.	.	0.82
Cc1nn2c(NCCN3CCOCC3)c3c(nc2c1-c1ccccc1)CCCC3	-0.5*	-34*	7	0.3	-8.4	6	-17*	i	.	0.63
CCOc1cc(CN2CCN(CCOCCO)CC2)ccc1OC	.	.	43	0.1	-0.4	0	.	.	.	0.72
Cc1cc(NCc2ccc3c(c2)OCO3)n2nc(C)nc2n1	-1.4	8	7	0.2	5.0	-1	14	i	-3.5	0.73
Cc1ccc2c(c1)N(CC(=O)OCC(=O)NCc1ccccc1)C(=O)CO2	2.5	16	-8	0.4	-0.1	0	18	i	-1.8	0.66
CC(C)NC(=O)Cn1c(SCC(=O)N2CCc3ccccc3C2)nc2ccccc21	.	.	10	0.2	2.7	-2	.	.	.	0.73
CN(C)CCCN(C(=O)/C=C/c1cccs1)c1nc2ccc(F)cc2s1	-9.5	-45	42	-0.1	-0.8	20	-39	i	14	0.62
COc1ccc(-c2nc(-c3cccs3)c(-c3cccs3)[nH]2)cc1O	.	.	4	-0.8	-39	0	.	.	.	0.75
CC(C)OP(=O)(Nc1cccc2ccccc12)OC(C)C	0.4	-1	12	0.6	-0.1	-8	0	i	1.7	0.7
Cc1cc(Cl)ccc1OCC(=O)Nc1ccc2oc(=O)ccc2c1	-0.8	4	-12	-0.4	-10	3	18	i	-1.2	0.73
O=C(CC1CCCCC1)Nc1ccccc1-c1ccccc1	.	.	8	0.1	4.9	-5	.	i	-1.2	0.7
CCN(CC)CCCOC(=O)C(c1ccccc1)c1ccccc1	-2.6	2	12	0.5	-1.2	-12	0	i	3.2	0.67

(next part)
SMILES	rRNA inh HTS RFP	rRNA inh HTS	T cruzi inh	Bfl-1 A1 inh	UCH37 DUB inh	Beta apoptosis	rRNA inh HTS OD600	FGF22 binding	MLL AF4-AF9 inh	Ecoli growth
CCN(CC)S(=O)(=O)c1ccc(NC2c3ccccc3C(=O)N2Cc2ccco2)cc1 (centres undefined)	0.1	-4	6	0.5	1.6	9	-3	i	0.0	0.72
CC1CCCCC1N(C)C1CCN(C(=O)CNC(=O)/C=C/c2cccc(Cl)c2)CC1 (centres undefined)	-2.3	12	38	0.2	1.9	-3	6	i	2.7	0.67
Cc1ccc(C(=O)NC(=S)N(C)C2CCCCC2)cc1	0.7	-5	-5	1.0	2.3	1	-19	i	1.8	0.7
CCS(=O)(=O)c1ccc2oc(SCC(=O)Nc3ccc(OC)cc3)nc2c1	-3.4	2	-6	-0.5	3.7	-3	-1	i	-0.1	0.65
COc1ccc(CCNC(=S)N2CCC(Cc3ccccc3)CC2)cc1OC	-0.1	-22	23	0.5	3.9	6	-38	.	-9.4	0.66
COc1ccc(NC(=S)NCc2ccc(Cl)cc2)c(OC)c1	-2.8	-10	-6	0.0	2.1	.	-9	i	7.6	0.7
C#CCn1cc[n+](CC(=O)N(C)C)c1	0.9	14	-5	-0.8	3.8	3	10	i	4.0	0.65
COc1cc(/C=C/c2cc(C(=O)O)c3ccccc3n2)ccc1OC(F)F	-9.7*	-26*	-8	-1.8	-128	-6	-18*	i	6.3	0.68
CC(=O)c1ccc(Nc2cc(C)nc3ccc(C)cc23)cc1	-1.2	12	11	0.5	0.4	26	8	i	-3.7	0.71
O=C(NCc1ccccc1)/C(=C/c1cccc([N+](=O)[O-])c1)NC(=O)c1ccco1	-0.7	18	3	0.0	0.7	-2	12	i	0.8	0.65
CC1CCN(CC(=O)Nc2cccc(C(=O)Nc3cccc(C(F)(F)F)c3)c2)CC1	-12	-42	41	0.0	4.5	2	-55	i	2.1	0.68
CC(NC(=O)COc1ccccc1Cl)c1ccccc1 (centres undefined)	-3.8	-17	2	0.2	4.2	.	-23	i	-3.7	0.66
Cc1ccc(C(=O)NC(C)CCc2ccccc2)cc1[N+](=O)[O-] (centres undefined)	.	.	-11	0.4	-0.8	7	.	.	.	0.67
CC(C)C[C@@]12C(=O)N(c3ccc(Br)cc3)C(=O)N1[C@H](c1ccc(Br)cc1)[C@@H]1C(=O)N(C(C)(C)C)C(=O)[C@@H]12	4.6	5	41	-0.1	-0.1	11	7	i	-1.0	.
CCn1c(CNC(=O)Cc2ccc(OC)cc2)nnc1SCC(=O)c1ccc(Br)cc1	-4.0	5	4	0.2	1.3	-2	2	i	5.9	0.64

Three entries picked at random from the list so far, as already listed:
SMILES	rRNA inh HTS RFP	rRNA inh HTS	T cruzi inh	Bfl-1 A1 inh	UCH37 DUB inh	Beta apoptosis	rRNA inh HTS OD600	FGF22 binding	MLL AF4-AF9 inh	Ecoli growth
C#CCn1cc[n+](CC(=O)N(C)C)c1	0.9	14	-5	-0.8	3.8	3	10	i	4.0	0.65
CC1CCN(CC(=O)Nc2cccc(C(=O)Nc3cccc(C(F)(F)F)c3)c2)CC1	-12	-42	41	0.0	4.5	2	-55	i	2.1	0.68
CCS(=O)(=O)c1ccc2oc(SCC(=O)Nc3ccc(OC)cc3)nc2c1	-3.4	2	-6	-0.5	3.7	-3	-1	i	-0.1	0.65

Whole records, looked up by structure. Order of values: rRNA inh HTS RFP | rRNA inh HTS | T cruzi inh | Bfl-1 A1 inh | UCH37 DUB inh | Beta apoptosis | rRNA inh HTS OD600 | FGF22 binding | MLL AF4-AF9 inh | Ecoli growth
Record of CC(C)C[C@@]12C(=O)N(c3ccc(Br)cc3)C(=O)N1[C@H](c1ccc(Br)cc1)[C@@H]1C(=O)N(C(C)(C)C)C(=O)[C@@H]12 = 4.6 | 5 | 41 | -0.1 | -0.1 | 11 | 7 | i | -1.0 | .
Record of C#CCn1cc[n+](CC(=O)N(C)C)c1 = 0.9 | 14 | -5 | -0.8 | 3.8 | 3 | 10 | i | 4.0 | 0.65

Other results.
SMILES	rRNA inh HTS RFP	rRNA inh HTS	T cruzi inh	Bfl-1 A1 inh	UCH37 DUB inh	Beta apoptosis	rRNA inh HTS OD600	FGF22 binding	MLL AF4-AF9 inh	Ecoli growth
NC(=O)CCN1CCC(c2nc3ccccc3s2)CC1	-3.9	4	7	-0.7	1.3	-5	5	i	1.0	0.68
O=C(Nc1nc(N2C(=O)c3ccccc3C2=O)n(-c2ccccc2)n1)c1ccc(F)cc1	.	.	1	0.1	0.7	-5	.	.	.	0.71
COc1cc(NC(=O)c2ccc(CNc3c(N4CCCC4)c(=O)c3=O)cc2)cc(OC)c1OC	-0.9	13	-10	0.5	3.5	2	6	i	1.0	0.67
COc1ccc(Nc2ncc3c(n2)CC(c2ccc(OC)cc2)CC3=O)cc1 (centres undefined)	.	.	5	0.1	-8.1	.	.	.	.	0.81
CC(Oc1ccc(F)cc1Br)c1nc2ccccc2c(=O)[nH]1 (centres undefined)	-1.4	0	1	0.0	2.0	-6	4	i	0.4	0.68
CC(=O)N1CCC(N(C(=O)Nc2ccc(F)cc2)C2CCCC2)CC1	5.3	4	-8	0.1	5.0	-6	10	i	-1.1	0.78
CC(C)(C)c1cc(Br)ccc1OCC(=O)Nc1ncn[nH]1	.	.	4	1.7	-0.8	-5	.	.	.	0.76
CCOc1ccc(NC(=O)Nc2ccc3c(c2)nc(C)n3C)cc1	-1.5	5	4	-0.4	2.6	1	8	i	-3.9	0.68
Cc1ccc(C)c(C(=O)COc2ccccc2[N+](=O)[O-])c1	-2.1	-21	-15	0.3	2.6	-15	-15	i	3.5	0.65
COC(=O)c1ccc2nc(Nc3nc4ccc(F)cc4s3)sc2c1	9.5	-1	-18	-0.8	-205	-4	-6	i	-2.4	0.72
Cc1ccc(N2CCN(C3=NC(=O)/C(=C\c4cn[nH]c4-c4ccccc4)S3)CC2)cc1	.	.	20	0.1	-1.8	-11	.	.	.	0.71
CN1CCN(/N=C/c2ccc(N(c3ccccc3)c3ccccc3)cc2)CC1	-0.8	-8	30	-0.2	.	2	-10	.	6.6	.
CC(C)C(c1nnnn1C1CCCC1)N1CCCc2ccccc21 (centres undefined)	2.9	-13	6	-0.7	2.7	-4	-18	.	.	0.69
CCOC(=O)N1CCN(c2c(Nc3ccc4c(c3)OCCO4)c(=O)c2=O)CC1	-0.3	0	-2	0.5	11	3	2	i	-0.2	0.7
O=C(Nc1c2c(nn1-c1cccc(Cl)c1)CS(=O)(=O)C2)c1cccs1	1.4	-3	-44	-0.2	0.2	-1	-6	i	0.6	0.62
CCC1Oc2ccc(C)cc2N(CC(=O)N(Cc2ccc3c(c2)OCO3)CC2CCCO2)C1=O (centres undefined)	.	.	33	0.4	1.9	12	.	.	.	0.7
Cc1noc(C)c1CSCC(=O)OCc1nnc(-c2ccc([N+](=O)[O-])cc2)o1	2.9	-12	.	-0.2	3.2	3	-6	i	-0.3	0.7
COc1ccc2c(c1)c(CC(=O)Nc1nnc(C3CC3)s1)c(C)n2C(=O)c1ccc(Cl)cc1	-0.1	13	57*	-0.2	3.2	15	12	i	-0.8	0.75
